Bioassay records: PubChem BioAssay, National Center for Advancing Translational Sciences (NCATS)
Menin-MLL FL inh = inhibitors of human menin-MLL interaction, wild-type MLL peptide; 290,000 tested, under 10 active; Fluorescence polarization, fluorescein-MLL peptide displacement from menin; FP activity change, % at 61.4 µM; inconclusive = falling polarisation curve, or a change in total fluorescence; inactive = total fluorescence flat and polarisation flat or rising; no compound was filed as active; the % refers to the polarisation; negative = inhibition;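 also: % of control where 0% means no effect; inhibitors lower the polarisation; unlabelled MLL peptide was the positive control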
TRPV1 PAM = human TRPV1 potentiation. Q8NER1. TRPV1-expressing cells, Fluo-8 calcium influx, capsaicin EC20 potentiation; host cell line not named in the record; control for the full effect not named in the record. potentiation, % at 8.33 µM. 320,000 compounds, 0.02% hits; active means potentiation above 80%; inconclusive means 30% to 80%; inactive means below 30%; also: 0% is about no effect
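Fluo-8 calcium influx in TRPV1-expressing cells, kinetic read (ex 480/em 520 nm). Compound added and read 3 min for agonist activity, followed by capsaicin at EC20 final and 2 min further read for enhancement.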
TRPML1 inh = blocks the human TRPML1 channel; Q9GZU1; TRPML1-inducible cells, Ca2+ dye fluorescence, FDSS; active compounds read low; inhibition of EC80 agonist-evoked calcium signal; activity change, negative = inhibition, % (concentration not given with the values); 390,000 compounds, 0.02% hits; AID 624415; in the data active means activity change below about -50%; inconclusive means about -30% to -50%; inactive means above about -30%;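 also: stimulus is agonist 54-4 at its EC80 concentration; % is scaled to controls: 0 for no effect and ±100 for the full control effect; the text of the record puts the active cut at -80%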
Target sequence (Q9GZU1 whole entry, looked up): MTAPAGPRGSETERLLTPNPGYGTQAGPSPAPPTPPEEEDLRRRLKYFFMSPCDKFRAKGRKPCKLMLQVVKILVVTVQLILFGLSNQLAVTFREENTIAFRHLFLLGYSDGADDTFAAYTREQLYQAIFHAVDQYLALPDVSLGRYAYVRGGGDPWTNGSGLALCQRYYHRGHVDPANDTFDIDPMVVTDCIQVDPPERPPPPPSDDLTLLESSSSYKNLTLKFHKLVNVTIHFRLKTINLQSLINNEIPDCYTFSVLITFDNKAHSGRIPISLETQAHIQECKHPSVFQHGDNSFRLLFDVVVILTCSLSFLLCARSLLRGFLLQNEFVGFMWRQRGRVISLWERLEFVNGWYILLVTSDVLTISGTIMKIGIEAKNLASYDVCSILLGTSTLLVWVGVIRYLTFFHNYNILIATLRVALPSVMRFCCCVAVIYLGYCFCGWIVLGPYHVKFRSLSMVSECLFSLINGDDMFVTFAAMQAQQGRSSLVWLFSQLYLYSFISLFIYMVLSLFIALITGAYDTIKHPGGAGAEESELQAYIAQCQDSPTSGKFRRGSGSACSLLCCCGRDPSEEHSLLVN
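Tet-induced TRPML1-DL cells loaded with Ca8 no-wash calcium dye were read kinetically on FDSS. Compound addition was followed by EC80 agonist 54-4 (4 uM final); inhibition was read over 110 s.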
TRPML1 ag = activates the human TRPML1 channel; Q9GZU1; TRPML1-expressing cells, Ca2+ dye fluorescence, FDSS; host cell line not named in the record; reference of the full effect not given here; activation, % (no concentration beside the values); 410,000 compounds, 0.12% hits; AID 624414; in the data active = activation above about 50%; inconclusive = about 30% to 50%; inactive = below about 30%; also: 0% is about no effect; the text of the record puts the active cut at 80%
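Tetracycline-induced TRPML1-DL cells are seeded and incubated overnight before loading with a no-wash Ca2+ dye and quencher. Agonist activity is taken from the 110 s fluorescence read following compound pin-transfer on an FDSS, before EC80 54-4 challenge.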
Sfp inh = blocks B. subtilis Sfp PPTase activity; Q9F4F7; Biochemical Sfp PPTase activity, qHTS; Potency, µM, for inactives: max response, negative = inhibition, actives largely listed as inhibitors; 310,000 compounds, 3.5% hits; AID 1490; active = well fitted inhibition curve with a large enough effect; inconclusive = small, poorly fitted or top-dose-only effect, or another doubt; inactive = no such curve, though single readings can be large or run the other way;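 also: the enzyme is Sfp with the accession as filed and its product quenches rhodamine fluorescence; potency is read from the fitted curve at half-maximal effect; 0% = enzyme reaction without inhibitor and -100% = no enzyme wells; top concentration of the series not given in the record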
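Compounds were incubated with enzyme (final 15 nM) for 15 min at room temperature before substrate addition started the reaction. Fluorescence at 525 nm excitation, 598 nm emission was recorded immediately and after 30 minutes.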
PINK1 modulator = PINK1 expression modulation | PINK1 immunofluorescence, high-content cytometry, 24 h | Potency, µM (series often up to 76.6 µM), without a hit: top-dose activation (PINK1 increase), usual class: activators | 410,000 compounds, 0.2% hits | AID 624263; active = well fitted activation curve with a large enough effect; inconclusive = small, poorly fitted or top-dose-only effect; inactive = flat fitted curve, though single readings scatter; cell line not stated here;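 also: potency is read from the fitted curve at half-maximal effect; % of control where 0% means no effect; nearly all actives have a fitted effect of over 65% in size; a mitochondrial uncoupler was the plate control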
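Cells are seeded, rested 12 hours, then given compound at five concentrations or DMSO for 24 hours. After fixation, blocking and antibody staining, PINK1 amount and mitochondrial localization are scored; CCCP serves as control.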
ClpP mod = qHTS Assay for Activators of ClpP; ATP-dependent Clp protease proteolytic subunit (Bacillus subtilis (strain 168)), P80244; purified B. subtilis ClpP, FRET peptide cleavage, 20 min; Potency, µM (series often up to 57.5 µM), for inactives: at the highest dose activity change, negative = active; 340,000 compounds, 1.9% hits; AID 651965, 2013; active = well fitted falling curve with a large enough effect; inconclusive = small, poorly fitted or top-dose-only effect; inactive = no such curve, though single readings can be large or run the other way; also: potency is read from the fitted curve at half-maximal effect; the source files actives as falling curves though it sought activators and does not explain the sign; nearly all actives have a fitted effect of over 65% in size; many hits overshoot -100%
Target sequence (P80244 whole entry, looked up): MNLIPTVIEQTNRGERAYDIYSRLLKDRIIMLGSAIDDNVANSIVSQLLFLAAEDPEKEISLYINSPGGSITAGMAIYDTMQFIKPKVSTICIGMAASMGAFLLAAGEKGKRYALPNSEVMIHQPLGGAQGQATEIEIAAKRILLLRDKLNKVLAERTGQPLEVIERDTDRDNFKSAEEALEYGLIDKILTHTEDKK
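FRET quenching reversal measured ClpP activation: 10 microg/mL B. subtilis ClpP at pH 8 with the FRET-FV decapeptide, read at 430 nm after 320 nm excitation. The 20-min minus 0-min signal was scaled between DMSO/no-enzyme wells and ADEP (5.8 microM final).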
* = called active by the depositor; ? = inconclusive; · = no result given; [ ] = dose if it differs, or a comment.

SMILES | Menin-MLL FL inh | TRPV1 PAM | TRPML1 inh | TRPML1 ag | Sfp inh | PINK1 modulator | ClpP mod
O=C(COC(=O)CSc1ccc(F)cc1)NC1CCCCCC1 | · | -9 | -7 | 0.8 | · | -0.4% | 0.8%
CN1CCN(C(=O)C2(NC(=O)Nc3ccccc3Cl)CCCCC2)CC1 | -0.3 | -8 | 8 | -0.2 | 25% | -2.1% | -2.0%
O=c1cc(C(F)(F)F)nc(-c2ccccc2)[nH]1 | -1.5 | 2 | 26 | 2.5 | 12% | 0.0%[38.3 µM] | -0.4%
COc1ccc(-c2nc3ccc(C)cc3c(=O)o2)cc1OC | -0.9 | -5 | 0 | 0.6 | 3% | 3.7% | -0.6%
CC(C)NC(=O)c1ccc(N2CCOCC2)nc1 | 0.9 | -6 | 9 | -0.3 | 16% | -0.3% | -7.5%
Cc1nn(C(=O)c2cccs2)c(N)c1-c1ccccc1 | 5.5 | 19 | -7 | -0.3 | -20% | 4.1% | -1.0%
COc1ccccc1S(=O)(=O)Cc1ccc(C(=O)NCCN2CCCC2)o1 | 5.1 | 4 | 5 | -0.1 | -7% | -1.9% | 0.3%
O=C(NCCC1=CCCCC1)C1CCN(C(=O)N2CCOc3ccccc32)CC1 | · | · | 22 | 0.2 | · | -1.3% | -3.7%
COc1ccccc1-c1cc(C(=O)NCc2cccs2)no1 | -3.0 | 3 | -17 | 1.1 | 0% | 3.5% | ?
CC1=CC(=C(C#N)C#N)C=C(C)N1CCC(C)C | 5.4 | 4 | ? | -0.5 | 10% | 1.7% | -18%
CCOc1ccc(-c2nc(CSCC(=O)NC3CCN(Cc4ccccc4)CC3)c(C)o2)cc1 | · | · | -2 | -0.7 | · | -0.4% | 3.7%
COc1ccccc1CC(NC(C)=O)C(=O)NC1CCN(c2nnnn2-c2ccccc2)CC1 (configuration not stated) | 4.7 | 7 | 0 | -0.5 | 6% | -1.0% | -0.8%
CN(C)c1ccc(NC(=O)CN2CCC(NC(=O)C3CCCCC3)CC2)cc1 | -10 | 1 | -14 | 0.0 | 0% | 1.2% | ·
Cc1ccc(O)c(C2=NOC(O)(C(F)(F)C(F)F)C2)c1 (configuration not stated) | 2.6 | -12 | -1 | 1.1 | 19% | 1.3%[38.3 µM] | -1.1%
CCCCNC(=O)CSc1nc2cc3c(cc2c(=O)n1CCCC(=O)NCc1ccc2c(c1)OCO2)OCO3 | · | · | -24 | 1.3 | · | -1.0% | 0.1%
OCCOc1nnnn1-c1ccccc1 | -2.0 | 2 | 13 | 0.7 | 14% | 1.8% | -2.7%
Cc1[nH]n(-c2ccccc2)c(=O)c1C(c1ccccc1[N+](=O)[O-])C(C#N)C#N (configuration not stated) | -15 | 3 | 13 | 1.1 | 5% | 0.9% | -9.7%
Cc1ccc(C(=O)COC(=O)CCC(=O)Nc2ccccc2Cl)cc1[N+](=O)[O-] | 0.8 | -8 | 8 | 0.1 | 20% | 0.0% | -0.7%
CC(NC(=O)c1ccc(NC(=O)c2nsc3ccccc23)cc1)c1ccccc1 (configuration not stated) | · | · | 8 | 3.0 | · | -1.0% | 23%
O=C(CSc1nccn1C1CCCC1)Nc1ccc(C(F)(F)F)cc1 | · | · | 14 | 1.4 | · | 9.7% | 1.7%
COc1ccc(NC(=O)CN(C)C(=O)CNC(=O)c2ccc(C)s2)cc1 | · | -3 | 11 | 0.1 | · | 0.6% | -9.7%
CCOc1ccc(N(CC(=O)NC2CCCCC2)S(=O)(=O)c2ccc(C)cc2)cc1 | 3.9 | 3 | 4 | -0.2 | 25% | 4.9% | ·
O=C(O)c1ccc(CS(=O)(=O)c2c(Cl)cccc2Cl)o1 | -0.6 | -22 | · | · | -2% | -0.8% | -1.2%
CC(=O)Nc1c(C)ccc([N+](=O)[O-])c1C | · | · | -29 | -0.6 | · | -0.9% | ·
CCN(CC)CCOC(=O)c1ccc(NC(=O)CCCN2C(=O)/C(=C/c3cccs3)SC2=S)cc1 | · | -1 | 5 | 0.0 | ? | -3.9% | -3.3%
COc1ccc(C(C)(C)C)cc1NC(=O)c1cccc(S(=O)(=O)N2CCN(C(C)=O)CC2)c1 | · | -20 | 32 | 0.6 | 18% | 7.0% | ·
O=C1NC(c2cc(Cl)cc([N+](=O)[O-])c2O)Nc2ccccc21 (configuration not stated) | 6.0 | 17 | · | · | 12% | 2.8% | -3.1%
O=C(Nc1nnc(SCc2ccccc2Cl)s1)C1COc2ccccc2O1 (configuration not stated) | 0.0 | 23 | 0 | 0.4 | 22% | -3.9% | -0.8%
CCCc1nc2c(ccc3ccccc32)cc1CC | -3.8 | -1 | 12 | -0.6 | -8% | 9.8% | -11%
COC(=O)c1cn(C(=O)c2cccc(Br)c2)c2ccccc12 | 0.1 | 2 | · | · | -3% | 1.5% | -8.6%

Single entries from the entries so far:
ClpP mod, COc1ccc(NC(=O)CN(C)C(=O)CNC(=O)c2ccc(C)s2)cc1 is entered as -9.7%
TRPML1 ag, COc1ccc(C(C)(C)C)cc1NC(=O)c1cccc(S(=O)(=O)N2CCN(C(C)=O)CC2)c1 is entered as 0.6

The listing continues.
SMILES | Menin-MLL FL inh | TRPV1 PAM | TRPML1 inh | TRPML1 ag | Sfp inh | PINK1 modulator | ClpP mod
O=C(COc1ccccc1Cl)Nc1nc(-c2cccs2)cs1 | 6.2 | -21 | -14 | 1.1 | 7% | 7.2% | -2.2%
O=C(CSc1ccc(-c2ccccc2)nn1)N1CCCCC1 | -4.5 | 20 | 5 | -0.2 | 9% | 2.9% | ·
CC(OC(=O)/C=C/c1ccccc1)C(=O)Nc1ccc(C(N)=O)cc1 (configuration not stated) | · | -33 | -17 | 0.2 | · | 8.2% | -0.6%
COc1ccc(OC)c(NC(=O)c2ccc(-c3csc(C)n3)cc2)c1 | 2.1 | 7 | -8 | 0.9 | -6% | 0.4% | ?
COCCNC(=O)c1c[nH]c2ccc(OC)cc2c1=O | -0.6 | 0 | 48 | 1.5 | 0% | 0.3% | -18%
O=Cc1c[nH]c2ccc(OCc3ccccc3)cc12 | · | -4 | -8 | 0.4 | · | ? | -9.5%
CC(C)Nc1nnc(SCC(=O)c2c(N)n(Cc3ccccc3)c(=O)n(C)c2=O)s1 | 5.0 | 13 | -2 | 1.1 | -1% | 0.2% | 1.1%
CC(CCN1CCN(CCO)CC1)c1ccccc1 (configuration not stated) | 0.4 | 10 | · | · | -36% | 0.7% | 0.7%
CC(C)Oc1ccc(CNC(=O)CCCN2C(=O)CCn3nc(-c4cccn4C)cc32)cc1 | · | · | 13 | 0.8 | · | 1.6% | -2.6%
CCOC(=O)c1cnc(SCC(=O)Nc2sc(C)c(C)c2C#N)nc1N | 10 | 10 | 5 | 0.9 | -5% | 9.7% | -2.0%
COc1ccccc1NS(=O)(=O)c1cccc(NC(=O)C2CC2)c1 | · | 2 | -4 | -0.1 | · | -0.4% | -2.3%
NC(=O)COC(=O)c1ccc2c(c1)S(=O)(=O)N=C1CCCCCN12 | 6.9 | -5 | -2 | -0.6 | 7% | -2.9% | 4.3%
O=C(O)C1CCN(S(=O)(=O)Cc2ccccc2)CC1 | 0.3 | 3 | -22 | 0.8 | 5% | -2.5% | 0.3%
C[C@]12c3[nH]c4ccccc4c3CCN1C(=O)C(CC(=O)NCCCn1ccnc1)C[C@@H]2C(=O)N1CCOCC1 (some centres not stated) | · | · | 4 | -0.6 | · | 0.1% | 0.9%
Cc1ccc2nc(CSc3nnc(NC(=O)c4ccc(C(C)(C)C)cc4)s3)cc(=O)n2c1 | · | · | 15 | 1.2 | · | -7.3% | ?
CC(OC(=O)c1nn(C)c(=O)c2ccccc12)C(=O)Nc1ccc(S(N)(=O)=O)cc1 (configuration not stated) | · | 4 | -12 | -0.5 | · | 2.4% | -3.9%
CN1CCN(c2ccc([N+](=O)[O-])cc2C(=O)Nc2ccccc2)CC1 | -0.4 | 1 | 16 | 0.7 | -6% | -1.0% | ·
O=C(CNC(=O)c1ccccc1F)OCC(=O)c1c[nH]c2ccccc12 | · | · | 1 | 3.0 | · | 1.4% | -1.0%
Cc1cc(C)c(C(=O)N2CCCC(CNC(=O)C3(c4ccc(Cl)cc4)CC3)C2)c(=O)[nH]1 (configuration not stated) | -4.0 | 9 | 0 | 0.3 | 9% | 3.2% | -4.8%
CCN(CC)CCN(CC(=O)Nc1c(C)cc(C)cc1C)C(=O)c1ccccc1 | -5.4 | 5 | 2 | 0.1 | 16% | -0.5% | -1.5%
CC(/C=C/c1ccccc1)=N\Nc1nc(-c2ccccc2)cs1 | 1.8 | 5 | -1 | 0.2 | -2% | 18%[38.3 µM] | -3.4%
O=C(CCN1C(=O)/C(=C/c2ccc(Cl)cc2)SC1=S)Nc1ccc(C(=O)O)cc1 | -0.1 | 11 | -6 | -0.6 | -4% | -0.5% | -0.4%
COCCCN1C(=O)C(CC(=O)NCCc2ccccn2)CC(C(=O)N(C(C)C)C(C)C)=C1C (configuration not stated) | · | · | -17 | 0.1 | · | 13% | -3.6%
Cc1oc2cc3oc(=O)c(CCC(=O)N4C[C@H]5C[C@@H](C4)c4cccc(=O)n4C5)c(C)c3cc2c1C | 4.1 | -10 | -3 | -0.4 | 6% | 5.1% | -13%
COc1ccccc1CCN1CCCC(CN(C)C(=O)c2ccco2)C1 (configuration not stated) | 3.0 | 3 | 1 | -0.6 | 15% | -0.6% | 0.3%
Cc1ccc(S(=O)(=O)c2c(N)n(CCCN(C)C)c3nc4ccccc4nc23)cc1 | 3.4 | -1 | 16 | -0.3 | 4% | 3.6% | 4.0%
CSc1ncccc1C(=O)OCC(=O)Nc1nc(C)c(Cl)cc1Cl | · | · | 7 | 2.1 | · | 15% | -2.5%
COc1cc(C(=O)Nc2nc3ccc(C)cc3s2)ccc1OCc1c(C)noc1C | -0.3 | -4 | -2 | 0.4 | 4% | 1.6% | 78%

Part of the list above, limited to TRPML1 ag and Sfp inh:
SMILES	TRPML1 ag	Sfp inh
COc1ccccc1CCN1CCCC(CN(C)C(=O)c2ccco2)C1 (configuration not stated)	-0.6	15%
Cc1ccc(S(=O)(=O)c2c(N)n(CCCN(C)C)c3nc4ccccc4nc23)cc1	-0.3	4%
CSc1ncccc1C(=O)OCC(=O)Nc1nc(C)c(Cl)cc1Cl	2.1	·

No enrichment for hits. Share with any hit: about 4.4%.
